Screening results (PubChem BioAssay)
rRNA inh HTS – inhibitors of bacterial rRNA selective over humanized ribosomes | E. coli WT GFP vs humanized-ribosome RFP mutants, fluorescence, 24 h; hits give low values; DMSO median 0, no signal -100 | hit rate 1.6% among 350,000 | GFP signal change (wild-type ribosome), % (no concentration beside the values);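 active = significant combined selectivity score with lowered wild-type GFP, culture density cut under 30%, mutant RFP and density less affected; inactive = any of these conditions unmet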; also: one replicate is shown; some compounds called inactive have numbers as strong as hits
MLL AF4-AF9 inh – MLL-AF4/AF9 protein interaction inhibition; AlphaScreen, biotin-AF4 peptide binding to FLAG-AF9; hit rate 0.47% among 350,000; P42568; inhibition, % at 10 µM;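 active = every replicate reaching a set inhibition limit, whatever the replicate mean, cut at about 25% in these data; inconclusive = mean inhibition reaches that limit but some replicates miss it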;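 also: 0% = plate neutral control median and 100% = total signal loss; the record names both 10 and 1 µM as test concentration; the first replicate is given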
Target sequence (P42568 whole entry, looked up): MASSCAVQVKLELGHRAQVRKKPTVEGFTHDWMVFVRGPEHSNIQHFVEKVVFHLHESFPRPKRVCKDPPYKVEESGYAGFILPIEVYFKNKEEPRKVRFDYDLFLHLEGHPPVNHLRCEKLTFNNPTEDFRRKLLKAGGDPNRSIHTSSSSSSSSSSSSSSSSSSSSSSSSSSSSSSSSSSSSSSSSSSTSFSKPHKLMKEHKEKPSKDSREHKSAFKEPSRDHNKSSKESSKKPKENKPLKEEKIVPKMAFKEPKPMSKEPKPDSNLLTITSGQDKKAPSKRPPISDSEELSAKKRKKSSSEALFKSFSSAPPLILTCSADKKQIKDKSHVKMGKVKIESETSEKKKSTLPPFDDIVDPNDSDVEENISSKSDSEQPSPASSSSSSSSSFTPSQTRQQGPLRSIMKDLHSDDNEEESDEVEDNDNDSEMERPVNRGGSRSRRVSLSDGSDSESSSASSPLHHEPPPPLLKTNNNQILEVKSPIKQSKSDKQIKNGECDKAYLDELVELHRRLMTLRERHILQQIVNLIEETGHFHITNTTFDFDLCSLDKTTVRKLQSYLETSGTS
RanGTP-Imp inh – inhibitors of RanGTP-importin-beta interaction, primary screen, biochemical, FRET, CFP-Ran, YFP-importin-beta, homogeneous | inhibition, % (no concentration beside the values) | hit rate 1.1% among 300,000 | cell-free CFP-Ran/YFP-importin-beta FRET ratio;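 active = most replicates above 15%; inconclusive = exactly half above 15%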;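 also: 0% = DMSO wells and 100% = Ran loaded with GDP instead of GTP; wells of about 40 µL received 100 nL stock; the first replicate is given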
Beta apoptosis – blocks beta cell apoptosis | hit rate 0.8% among 300,000 | protection from apoptosis, % (no concentration beside the values) | INS-1E cytokine-induced death, ATP luminescence, 48 h; percent of positive-control rescue, neutral wells zero;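 active = all replicates at 75% or more, or half of them and the mean; inconclusive = half reach 75% but not the mean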;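 also: 0% = cytokine-treated negative control wells and 100% = positive control rescue; higher means more ATP so stronger rescue from cytokine killing; wells of about 40 µL received 100 nL stock; the first replicate is given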
ALR inh – human ALR oxidase inhibition via reduced H2O2; P55789; AID 485317; purified ALR, DTT oxidation, H2O2 HRP-luminol luminescence; hit rate 3.8% among 290,000; inhibition, % (no concentration beside the values);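 active = mean and each replicate at 75% or more; inconclusive = only one of the two met; inactive = neither met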;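 also: stock transfer was 7.5 nL into about 7.5 µL; 0% = neutral wells and 100% = wells with inactivated enzyme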
Target sequence (P55789 whole entry, looked up): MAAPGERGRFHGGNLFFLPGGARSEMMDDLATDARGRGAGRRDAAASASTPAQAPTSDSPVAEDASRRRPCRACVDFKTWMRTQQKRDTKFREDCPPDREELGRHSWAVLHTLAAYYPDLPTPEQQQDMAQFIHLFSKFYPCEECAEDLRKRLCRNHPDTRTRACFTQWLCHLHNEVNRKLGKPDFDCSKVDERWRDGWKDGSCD
FGF22 binding – binders of recombinant human FGF22 by thermal shift. Q9HCT0. calls only at 9.99 µM. SYPRO orange fluorescence; percent of sucrose octasulfate shift, DMSO zero. hit rate 1.5% among 340,000. AID 651658;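 active = melting point raised past a set limit in the mean and every replicate; inconclusive = no clear call; three in four hits are not shown here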
Target sequence (Q9HCT0 whole entry, looked up): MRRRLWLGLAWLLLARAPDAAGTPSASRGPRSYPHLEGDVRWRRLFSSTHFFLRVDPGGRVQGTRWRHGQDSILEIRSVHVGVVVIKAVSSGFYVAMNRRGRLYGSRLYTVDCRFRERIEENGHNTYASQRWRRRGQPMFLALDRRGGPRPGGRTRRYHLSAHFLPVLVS
T cruzi repl – blocks replication of Trypanosoma cruzi. inhibition, % (no concentration beside the values). T. cruzi beta-gal in NIH3T3, luminescence, 90 h. hit rate 1.4% among 300,000. AID 1885;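 active = mean inhibition across valid replicates above about 55%, limit read from the data; inconclusive = mean below that limit but half or more replicates reach it; inactive = mean below it, under half of replicates reach it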;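 also: signal also drops with host cell toxicity which is not excluded here; 0% = plate median of DMSO wells and 100% = zero luminescence signal; higher percent means less beta-gal luminescence so fewer parasites; stock transfer was 50 nL into about 50 µL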
Calb FLC – C. albicans growth modulation with fluconazole; C. albicans CaCi-2 (fluconazole-resistant clinical isolate) + fluconazole, Alamar Blue growth, 48 h; growth inhibition, % (no concentration beside the values); hit rate 0.57% among 300,000; AID 1979;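 active = most replicates above 75%; inconclusive = exactly half above 75%; inactive = most below 75%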;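 also: all wells also contain fluconazole at 8 µg/ml as a sub-toxic cotreatment; 0% = median of DMSO wells and 100% = median of geldanamycin control wells; wells of about 8 µL received 7.5 nL stock; the first replicate is given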
rRNA inh HTS OD600 – also measured in rRNA inh HTS; calls as there; OD600 change, %; measured here: OD600 growth;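 optical density of the mix in the first replicate; 0 = DMSO median and -100 = no signal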
rRNA inh HTS RFP – second read-out of rRNA inh HTS, no call of its own (marks repeat the call); RFP signal change, %; measured here: RFP humanized mutant strains;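 first replicate; 0 = DMSO median and -100 = no signal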
Starred values were filed as active, the others as inactive; i = inactive; u = inconclusive; x = not tested or not shown.

SMILES | rRNA inh HTS | rRNA inh HTS OD600 | rRNA inh HTS RFP | MLL AF4-AF9 inh | RanGTP-Imp inh | Beta apoptosis | ALR inh | FGF22 binding | T cruzi repl | Calb FLC
OC(COc1ccccc1)CN(Cc1ccccc1)CC(O)COc1ccccc1 (stereo not drawn) | -43 | -76 | -9.5 | -2.2 | x | -6 | -4 | i | x | x
CNc1ccccc1 | 1 | -2 | -1.3 | x | x | 5 | -1 | i | x | x
CC(=O)/C(C#N)=C1\NC(=O)C(Cc2cc(Cl)ccc2Cl)S1 (stereo not drawn) | -54 | -77 | -16 | -4.8 | 7.8 | 14 | 65 | x | 6 | -5
Fc1ccc(N2CCN(c3ncnc4c3nnn4Cc3ccccc3Cl)CC2)cc1 | x | x | x | x | -2.9 | 16 | -2 | x | 63* | 10
O=C(NC1CCc2ccccc21)C1CCN(S(=O)(=O)c2ccc(Cl)cc2)CC1 (stereo not drawn) | x | x | x | x | -1.3 | 4 | -3 | x | 3 | -6
CCN1CCCC1CNC(=O)c1cc(NC(C)=O)c(N(C)C)cc1OC (stereo not drawn) | x | x | x | x | 2.0 | 1 | -14 | x | -1 | -7
Cc1ccc(C)c(NC(=O)C2CCCN2C(=O)OC(C)(C)C)c1 (stereo not drawn) | x | x | x | x | 0.5 | 2 | -23 | x | -10 | 3
COc1cc(CNC2CCCCCC2)cc(OC)c1OC | x | x | x | x | 2.2 | -5 | 12 | x | -24 | -3
CC(C)C1CC(O)(C2(O)CCCCC2)ON1 (stereo not drawn) | x | x | x | x | 2.7 | 0 | -8 | x | -23 | 0
COc1ccc(C2C(C(C)=O)=C(O)C(=O)N2CCO)c(OC)c1 (stereo not drawn) | x | x | x | x | -0.2 | 4 | -42 | x | -4 | 2
Cc1ccc(N/N=C2\CCS(=O)(=O)c3sccc32)cc1 | -5 | -2 | -2.6 | 12 | u | -2 | 99* | i | -3 | u
Cc1oc(-c2ccc(Cl)cc2)nc1CN1CCC(C(=O)NCCCN2CCCC2=O)CC1 | 6 | 14 | 1.8 | 0.1 | 0.3 | 0 | -2 | i | -7 | 8
CN(C)CCCNS(=O)(=O)c1cc(Cl)ccc1Cl | x | x | x | x | -0.4 | -3 | -4 | x | -4 | -11
O=C(NCCCN1CCCC1)C1CCN(C(=O)c2cc3sccc3n2Cc2ccc(F)cc2)CC1 | x | x | x | x | 3.9 | -4 | 0 | x | 55* | -2
Cc1cccc(C(=O)OCC(=O)c2c(N)n(CC(C)C)c(=O)n(C)c2=O)c1[N+](=O)[O-] | -6 | -11 | -0.9 | 0.2 | -2.5 | 9 | -5 | i | 13 | -5
Cc1ccc(F)cc1NC(=O)c1ccc(NS(=O)(=O)c2ccc(Br)s2)cc1 | x | x | x | x | -2.5 | -3 | 2 | x | -10 | 16
O=C(NC1CCN(Cc2ccccc2)CC1)c1ccccc1F | 7 | 0 | 1.7 | 4.4 | 1.2 | x | -2 | i | 31 | 9
Nc1cccc2c1C(=O)N(CCOc1ccc(F)cc1)C2=O | -1 | -12 | 0.9 | -3.1 | 26* | -1 | -3 | i | 2 | 1
CN(C)S(=O)(=O)N(CCN1CCOCC1)Cc1ccccc1F | x | x | x | x | 4.3 | -2 | -13 | x | -19 | -8
O=C(Cn1nc(-c2ccccc2)nc1-c1ccccc1)N1CCOCC1 | x | x | x | x | -1.2 | -1 | -9 | x | 4 | u
C=C(C)Cn1c(=O)c2c(nc3n2CCCN3Cc2ccccc2)n(C)c1=O | -28* | -4.1* | -6.5* | 4.9 | 2.1 | 8 | 2 | i | -9 | -5
Cc1ccc(CNC(=O)CNC(=O)c2ccc(Br)o2)cc1 | 4 | 13 | -2.3 | -3.7 | -0.6 | x | 9 | i | -6 | 2
CN(C)c1ccc(Nc2nc(N)c3ccccc3n2)cc1 | 16 | -1 | -6.4 | 60* | 1.4 | x | 99* | i | 21 | 7
O=C(O)CSc1c[nH]c2ccccc12 | x | x | x | x | 1.1 | -7 | 98* | x | -2 | 1
Cc1c(Cl)cccc1-n1c(SCC(=O)N(C)Cc2ccccc2)nnc1-c1ccncc1 | x | x | x | x | 4.4 | 5 | -19 | x | 1 | 8

Single records, from the list above:
CC(=O)/C(C#N)=C1\NC(=O)C(Cc2cc(Cl)ccc2Cl)S1 (stereo not drawn) is listed as rRNA inh HTS = -54; rRNA inh HTS OD600 = -77; rRNA inh HTS RFP = -16; MLL AF4-AF9 inh = -4.8; RanGTP-Imp inh = 7.8; Beta apoptosis = 14; ALR inh = 65; FGF22 binding = x; T cruzi repl = 6; Calb FLC = -5
O=C(O)CSc1c[nH]c2ccccc12 is listed as rRNA inh HTS = x; rRNA inh HTS OD600 = x; rRNA inh HTS RFP = x; MLL AF4-AF9 inh = x; RanGTP-Imp inh = 1.1; Beta apoptosis = -7; ALR inh = 98*; FGF22 binding = x; T cruzi repl = -2; Calb FLC = 1
Cc1ccc(F)cc1NC(=O)c1ccc(NS(=O)(=O)c2ccc(Br)s2)cc1 is listed as rRNA inh HTS = x; rRNA inh HTS OD600 = x; rRNA inh HTS RFP = x; MLL AF4-AF9 inh = x; RanGTP-Imp inh = -2.5; Beta apoptosis = -3; ALR inh = 2; FGF22 binding = x; T cruzi repl = -10; Calb FLC = 16

New compounds follow
SMILES | rRNA inh HTS | rRNA inh HTS OD600 | rRNA inh HTS RFP | MLL AF4-AF9 inh | RanGTP-Imp inh | Beta apoptosis | ALR inh | FGF22 binding | T cruzi repl | Calb FLC
COCCN(CCOC)c1nc(-c2ccccc2)nc2ccccc12 | 1 | 2 | 1.5 | -5.6 | 1.1 | -16 | -1 | i | -2 | 8
COc1ccc(CNC(=O)c2cc(=O)c3cc(C)ccc3o2)cc1 | 3 | 12 | 0.0 | 0.4 | -3.3 | 1 | -7 | i | 5 | 4
C=CCNC(=O)CCCOc1ccc(C)cc1 | x | x | x | x | 1.6 | x | -4 | x | -11 | -13
CN(C)CCCN(C(=O)CCSc1ccccc1)c1nc2cc3c(cc2s1)OCO3 | -31* | 3.3* | 3.0* | u | -21 | -12 | -1 | i | 53 | 15
O=C(NCC1CCCCC1)c1ccco1 | x | x | x | x | -6.0 | -1 | -3 | x | -4 | 19
Cn1c(C(=O)N2CCN(c3ccccc3)CC2)cc2cc(Cl)ccc21 | 0 | 4 | -0.8 | -8.1 | -2.7 | -5 | -6 | i | 7 | 5
COc1ccc(-n2c(=S)[nH]c3cc(C(=O)NC4CCCCC4)ccc3c2=O)c(OC)c1 | 16 | 4 | 1.9 | -3.4 | -0.9 | 2 | 91* | i | -4 | 2
Cc1ccc(C(=O)OCC(=O)NC2CCS(=O)(=O)C2)c(C)c1 (stereo not drawn) | 2 | 3 | 1.6 | -1.0 | x | -6 | -1 | i | x | x
CC(C)NC(=O)CCCC(=O)NC(C)C | x | x | x | -4.0 | 6.7 | -9 | -7 | i | -10 | 9
COc1ccccc1/C=C/C(=O)OCC(=O)c1c(N)n(C)c(=O)n(C)c1=O | x | x | x | x | 0.2 | 2 | 6 | x | -16 | 11
C=CCn1c(N)c(C(=O)NC2CCCCC2)sc1=S | x | x | x | x | 0.1 | 1 | 48 | x | 1 | 6
Cc1[nH]c(=S)c(C#N)c(C)c1C(=O)Nc1ccccc1 | x | x | x | x | 4.0 | -5 | x | x | 3 | -12
O=S(=O)(NCC1CCCO1)c1ccc(Cl)c(C(F)(F)F)c1 (stereo not drawn) | x | x | x | x | 6.1 | -1 | -3 | x | -20 | 5
Cc1nnsc1-c1onc(C)c1C(=O)Nc1cc(Cl)cc(Cl)c1 | -33 | -35 | 5.0 | -2.4 | -2.8 | 77* | -8 | x | 23 | -6
C=CCNC(=S)NNC(=O)CCC(O)CCCCC (stereo not drawn) | x | x | x | x | -1.7 | -5 | 10 | x | -15 | -15
C=CCn1c(SCc2ccc(C#N)cc2)nnc1-c1ccc(C)cc1 | x | x | x | x | -1.7 | 9 | 1 | x | 2 | 16
O=S(=O)(c1cnc[nH]1)N1CCCCCC1 | x | x | x | x | -2.6 | -3 | x | x | -6 | 0
O=C(CCSc1ccc(Cl)cc1)c1ccco1 | 1 | -2 | 0.7 | -5.7 | 0.6 | -40 | 48 | i | 40 | 5
CCOC(=O)C1CCCN(C(=O)c2cnn3c(C(F)(F)F)cc(-c4ccccc4)nc23)C1 (stereo not drawn) | x | x | x | x | 2.0 | -1 | -2 | x | -3 | -2
COC(=O)c1ccc(-c2nc3ccc(C)cc3o2)cc1 | x | x | x | x | u | x | -12 | x | -14 | -17
COc1ccccc1C(=O)NCCC(=O)N(C)CC(=O)Nc1ccc(Cl)cc1 | -1 | -2 | 2.2 | 1.3 | 3.5 | -3 | -3 | i | -2 | -4
COc1ccc(NC(=O)c2cc([N+](=O)[O-])ccc2NC(=O)CNC2CCCCC2C)c(OC)c1 (stereo not drawn) | -6 | 0 | -1.8 | 2.6 | -2.6 | -7 | x | i | 28 | 0
S=c1[nH]nc(-c2ccccn2)n1/N=C/c1cccc2ccccc12 | 4 | 6 | 0.7 | -17 | 0.1 | 7 | 96* | i | 4 | 0
COC(=O)c1sc2ncccc2c1OCc1ccc(Cl)cc1 | x | x | x | x | -3.0 | -1 | x | x | 2 | -8
CCc1ccc(N2CC(C(=O)N/N=C/c3cccc([N+](=O)[O-])c3)CC2=O)cc1 (stereo not drawn) | x | x | x | x | 1.5 | -7 | -1 | x | 4 | 15
SMILES | rRNA inh HTS | rRNA inh HTS OD600 | rRNA inh HTS RFP | MLL AF4-AF9 inh | RanGTP-Imp inh | Beta apoptosis | ALR inh | FGF22 binding | T cruzi repl | Calb FLC
Cc1[nH]n(C(N)=S)c(=O)c1C(c1ccccc1)C(C#N)C#N (stereo not drawn) | x | x | x | x | 2.7 | 4 | 74 | x | -12 | -3
Cc1cc(C)cc(NC(=O)Nc2cnccn2)c1 | -6 | 0 | -3.9 | 3.6 | 3.2 | 3 | 7 | i | 8 | 15
CCS(=O)(=O)NC(C)C(c1cccs1)N1CCN(C)CC1 (stereo not drawn) | 12 | 14 | -11 | -6.8 | 1.8 | 1 | 2 | i | -1 | -5
Cc1sc2nc(C3CC3)nc(SCC(=O)NCc3ccco3)c2c1C | -7 | -1 | 6.2 | -4.2 | -0.4 | 5 | 2 | i | 17 | 1
CCCn1c(SCC(=O)NCc2cccs2)nc2c1c(=O)n(C)c(=O)n2C | 0 | -6 | -8.5 | 5.6 | -14 | -8 | -4 | i | -13 | -1
CC1=CC(=NOC(=O)c2cccc([N+](=O)[O-])c2)C=C(C)C1=O | x | x | x | x | 6.3 | -6 | 57 | x | 6 | 27
CCC(=O)N1CCc2cc(S(=O)(=O)NCCN3CCC(C)CC3)ccc21 | x | x | x | x | -3.6 | 1 | -5 | x | 6 | 11
O=C(COC(=O)Cc1c(F)cccc1Cl)Nc1ccc2[nH]c(=O)[nH]c2c1 | -7 | -14 | -2.9 | -0.2 | x | 0 | 6 | i | x | x
COCC(=O)Nc1ccc(-c2cn3cccnc3n2)cc1 | 24 | 14 | -7.8 | -6.0 | 0.5 | 8 | 1 | i | -6 | 7
COC(=O)[C@H](C)NC(=O)Nc1cccc(Br)c1 | -4 | 6 | 0.9 | 1.0 | 5.9 | 4 | -7 | i | -2 | -5

Some of the compounds tested, so the mix of outcomes need not match the whole.
